# RECQ1 inh – qHTS Assay for Inhibitors of RecQ-Like Dna Helicase 1 (RECQ1) | RECQ1 DNA unwinding, red fluorescence kinetic read | hit rate 0.54% among 240,000 | ATP-dependent DNA helicase Q1 (Homo sapiens), P46063 | Potency, µM (titrated, usually from 57.3 µM), for the others: top-dose activity, negative = inhibition, usual class: inhibitors | AID 2549, 2010;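 also: plate controls were vehicle for no effect and no enzyme for full effect; nearly all actives have a fitted effect of over 30% in size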
#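 RECQ1T1 50 nM; forked duplex (20 bp + 30-nt ss tails) 200 nM, ATP 2 mM final; pH 8.0, 2 mM MgCl2, 2.5 ug/ml poly(dI-dC); 15 min compound preincubation; discontinuous kinetic read over 2 h at RT.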
# TRb-SRC2 inh – qHTS for Inhibitors of the Interaction of Thyroid Hormone Receptor and Steroid Receptor Coregulator 2 | Potency, µM (top dose mostly 106 µM), for the others: at the highest dose activity change, negative = inhibition, usual class: inhibitors | TRbeta-SRC2 peptide binding, fluorescence polarization; receptor liganded with 1 µM T3 | hit rate 0.065% among 280,000 | Thyroid hormone receptor beta (Homo sapiens), P10828;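 also: plate controls were bound peptide for no effect and peptide without receptor for full effect; nearly all actives have a fitted effect of over 50% in size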
# Target sequence (P10828 whole entry, looked up): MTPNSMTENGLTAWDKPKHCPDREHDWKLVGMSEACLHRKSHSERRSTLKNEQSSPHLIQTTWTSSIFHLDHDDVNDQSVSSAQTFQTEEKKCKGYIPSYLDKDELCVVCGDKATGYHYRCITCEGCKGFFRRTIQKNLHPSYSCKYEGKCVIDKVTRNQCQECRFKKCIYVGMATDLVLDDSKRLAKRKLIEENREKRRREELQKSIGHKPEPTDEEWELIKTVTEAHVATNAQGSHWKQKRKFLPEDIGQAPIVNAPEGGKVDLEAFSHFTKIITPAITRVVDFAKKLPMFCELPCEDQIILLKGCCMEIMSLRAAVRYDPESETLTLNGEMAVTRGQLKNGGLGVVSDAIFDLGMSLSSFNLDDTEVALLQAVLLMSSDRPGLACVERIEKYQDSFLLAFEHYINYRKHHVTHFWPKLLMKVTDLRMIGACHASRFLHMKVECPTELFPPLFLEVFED
#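 Quantitative HTS by FP: 0.6 uM TRb LBD, 20 nM labeled SRC2 20-mer, 1 uM T3, 5% DMSO; 5 hr ambient incubation; % activity per concentration and potencies from concentration series.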
# TR SRC2 fluor cs – Total Fluorescence Counterscreen for Inhibitors of the Interaction of Thyroid Hormone Receptor and Steroid Receptor Coregulator 2; hit rate 0.29% among 280,000; TRb/SRC2 Texas Red total fluorescence interference; Potency, µM (top dose mostly 106 µM), for inactives: at the top dose fluorescence change, negative = quenching; active = well fitted curve in either direction with a large enough effect; inconclusive = small, poorly fitted or top-dose-only effect; also: % is scaled to controls: 0 for no effect and ±100 for the full control effect
#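 Human TRβ ligand-binding domain (0.6 uM) and Texas Red SRC2 peptide (20 nM) in Tris buffer with 1 uM T3 and 5% DMSO were incubated with pinned compound for 5 hr at ambient temperature. Total fluorescence was computed as S + 2P (555/632 nm).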
# JMJD2E inh – qHTS Assay for Inhibitors of Human Jumonji Domain Containing 2E (JMJD2E). AID 2147, 2009. Lysine-specific demethylase 4E (Homo sapiens), B2RXH2. JMJD2E catalytic domain, FDH-coupled NADH fluorescence (FDH is formaldehyde dehydrogenase). Potency, µM (top dose mostly 57.1 µM), without a hit: at the top dose activity change, negative = inhibition, actives largely listed as inhibitors. hit rate 1.6% among 230,000; active = well fitted inhibition curve with a large enough effect, not every such curve was filed as active; inconclusive = small, poorly fitted or top-dose-only effect, or another doubt; inactive = no such curve, though single readings can be large or run the other way;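 also: 0% = wells with enzyme and -100% = buffer wells without enzyme; nearly all actives have a fitted effect of over 50% in size; many of its hits are not listed in these tables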
# GoLoco inh red – qHTS Assay for Inhibitors of RGS12 GoLoco Motif Activity (Red Fluorophore) | Gai1:RGS12 GoLoco peptide FP, rhodamine, 10 min | Potency, µM (doses to about 61.6 µM), without a hit: at the highest dose activity, negative = inhibition, most hits filed as inhibitors | Guanine nucleotide-binding protein G(i) subunit alpha-1 (Homo sapiens), P63096 | hit rate 0.44% among 230,000; active = well fitted inhibition curve with a large enough effect, not every such curve was filed as active; inactive = no such curve, though single readings can be large or run the other way; also: % is scaled to controls: 0 for no effect and ±100 for the full control effect; nearly all actives have a fitted effect of over 30% in size; many of its hits are not listed in these tables
# Target sequence (P63096 whole entry, looked up): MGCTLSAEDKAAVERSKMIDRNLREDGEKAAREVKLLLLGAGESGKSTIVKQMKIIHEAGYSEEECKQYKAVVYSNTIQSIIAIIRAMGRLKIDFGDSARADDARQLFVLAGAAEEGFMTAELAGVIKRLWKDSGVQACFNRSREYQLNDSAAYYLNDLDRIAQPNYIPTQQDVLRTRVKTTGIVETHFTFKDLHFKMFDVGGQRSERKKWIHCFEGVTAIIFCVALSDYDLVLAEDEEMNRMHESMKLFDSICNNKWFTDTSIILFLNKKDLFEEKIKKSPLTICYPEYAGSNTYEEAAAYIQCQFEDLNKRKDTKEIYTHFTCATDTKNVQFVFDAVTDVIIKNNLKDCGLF
# LMNA splice mod – qHTS Assay for Modulators of Lamin A Splicing; hit rate 0.01% among 200,000; HeLa LMNA splicing GFP/RFP minigene ratio, 48 h; Potency, µM (highest dose often 46.1 µM), without a hit: at the highest dose ratio change, negative = inhibition, usual class: inhibitors; active = well fitted inhibition curve with a large enough effect in the signal ratio, with a control signal flat, not every such curve was filed as active; inconclusive = small, poorly fitted or top-dose-only effect, or effect the other way, or a change in a side signal; the % refers to the signal ratio; also: % is scaled to controls: 0 for no effect and ±100 for the full control effect
#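 Read-out is the ratio of GFP to DsRed2 object intensity, acquired by 488 nm laser-scanning cytometry on HeLa lamin A-EGFP minigene reporter cells. Compound incubation 48 hrs at 37 °C in Opti-MEM with 2% FBS; DMSO 0.5% final.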
# SMN2 splice up – qHTS Assay for Enhancers of SMN2 Splice Variant Expression | HEK293 SMN2-luciferase splicing reporter, luminescence, 30-36 h | Potency, µM (series often up to 46.1 µM), without a hit: at the top dose activity change, positive = activation, hits mostly activators | hit rate 2.8% among 210,000 | AID 1458, 2008; also: % of control where 0% means no effect; nearly all actives have a fitted effect of over 55% in size
#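 HEK293 cells carry an SMN2 […]–luciferase reporter in which exon 7 inclusion puts luciferase in frame. Cells were plated 10-12 h before compound addition, then incubated 30-36 h at 37C. ONE-Glo luminescence was read; sodium butyrate at 4.5 mM final served as control.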
# Numbers without * were called inactive; i = inactive; u = inconclusive; x = not tested or not shown; & = joins results of further samples; [ ] = dose if it differs, or a comment. Unless noted, calls follow the shape of the dose curve; as a rule, active = well fitted curve in the direction sought with a large enough effect; inconclusive = small, poorly fitted or top-dose-only effect, or another doubt; inactive = no such curve, though single readings can be large; an effect the other way counts as inactive or inconclusive. Potency is read from the fitted curve at half-maximal effect.
canonical_smiles	RECQ1 inh	TRb-SRC2 inh	TR SRC2 fluor cs	JMJD2E inh	GoLoco inh red	LMNA splice mod	SMN2 splice up
CCN1CCN(C(CNS(=O)(=O)c2ccc(OC)cc2)c2cccnc2)CC1 (stereo not given)	-2%	-5%	-1%	0%	1%	-12%	20%
Cc1c(NC(=S)NC(=O)CC(C)C)c(=O)n(-c2ccccc2)n1C	-3%	2%	0%	1%	10%	x	-10%
COc1ccc(OC)c(NC(=O)CCN2CCCC(C)C2)c1 (stereo not given)	-1%	-8%	7%	0%	-6%	-3%	2%
C=CC(=O)NCCCc1cc(C(C)(C)C)c(O)c(C(C)(C)C)c1	-5%	-5%	8%	2%	-4%	8%	-12%
COc1ccc(C(=O)NCc2nnc(SCC(=O)N3CCOCC3)o2)cc1OC	7%	0%	0%	2%	-13%	x	0%
ONC=Nc1cccc2nonc12	-4%	-16%	-3%	-1%	x	4%	x
Cc1ccccc1NC(=S)Nc1cccc([N+](=O)[O-])c1	-5%	-2%	3%	6%	4%	0%	-11%
Cc1cccc(C)c1Nc1nnc(SCC(=O)NCc2cccs2)s1	i	-3%	-1%	5%	-2%	13%	5%
Cc1cccc(C)c1OCC(=O)NNC(=O)Nc1ccc(Cl)cc1	i	3%	-4%	4%	-3%	3%	-7%
COc1ccc(Cl)cc1N1CCN(CCNC(=O)Nc2ccccc2C)CC1	i	-24%	3%	-1%	5%	u	-6%
O=C(CCC1CCCN(C(=O)CCN2CCCCC2=O)C1)NCc1ccccc1F (stereo not given)	i	6%	-2%	-2%	3%	x	6%
CCCCc1nc2sc3c(=O)n(N)cnc3c2c2c1CCCC2	-1%	2%	1%	17%	-3%	0%	-5%
Cc1cccc(C)c1NC(=O)C1(NC(=O)C2CCCN2C(=O)OC(C)(C)C)CCCCC1 (stereo not given)	-16%	1%	-7%	2%	-10%	8%	-9%
CCOCCn1c(C(C)O)nc2ccccc21 (stereo not given)	10%	-5%	0%	2%	-1%	6%	7%
Cc1ccc(C(=O)NCCCCNC(=O)c2ccc(C)o2)o1	1%	-10%	-1%	1%	5%	2%	11%
COc1ccc(CCNS(=O)(=O)c2cc(/C=C/C(=O)O)ccc2C)cc1OC	i	-1%	0%	1%	47%[activator]	-7%[46 µM]	6%
CCCCOC(=O)c1ccc(NC(=O)c2cnccn2)cc1	-3%	4%	0%	-7%	7%	3%	20%
CN(C)Cc1nc2ccccc2c(=O)n1Cc1nc(-c2cccc([N+](=O)[O-])c2)cs1	-6%	-3%	-3%	4%	13%	x	-41%[inhibitor]
Cc1cc(=O)[nH]c(S)c1C#N	22µM*	-7%	-4%	28µM*	2%	x	x
CC(=O)/C(N=Nc1cc2c(cc1[N+](=O)[O-])OCCO2)=C(\C)O	i	-1%	-5%	4%	-5%	7%[46 µM]	21%
Cc1ccc(C)c(NC2=NC3(CCCCC3)N=C(N)N2)c1	-3%	-11%	-5%	9%	1%	-6%	-5%
CCc1nc2cc(Cl)c(Cl)cc2[nH]1	-5%	-3%	-12%	1%	-9%	2%	-4%
O=C(O)CC(NS(=O)(=O)c1ccc(Br)cc1)c1ccco1 (stereo not given)	-5%	-9%	-2%	2%	-8%	0%	-2%
Cc1c(C(=O)C(C)C)n(C)c2ccccc12	-1%	-3%	-3%	2%	7%	11%	-3%
OCCCc1nc2ccccc2[nH]1	-6%	2%	-4%	3%	0%	x	-4%
CCn1c(SCC(=O)c2ccccc2)nc2c(c1=O)SC(C)C2 (stereo not given)	0%	-10%	-6%	u	-7%	-9%	-29%
Cc1oc(-c2ccccc2)nc1C(=O)O	-1%	0%	-7%	0%	7%	x	x
O=C1OCc2cc(-n3cccc3)ccc21	u	0%	0%	0%	9%	x	-3%
Cc1ccc(Nc2nnc(SC3CCOC3=O)s2)c(C)c1 (stereo not given)	-10%	0%	1%	5%	3%	-2%	-11%
COc1ccc(N/C=C2\CCOC2=O)cc1	10%	-1%	-2%	3%	-2%	-1%	-6%
O=C(Nc1ccc(OCC(F)(F)C(F)F)cc1)c1ccncc1	-3%	2%	-4%	-29%	-2%	x	-66%[inhibitor]
O=C(O)CC(NC(=O)Cc1ccc([N+](=O)[O-])cc1)c1ccc2c(c1)OCO2 (stereo not given)	-3%	-2%	-1%	-8%	6%	x	x
CC(C)(C)n1nnnc1C(c1ccc(Cl)cc1)N(Cc1cccnc1)Cc1ccco1 (stereo not given)	-7%	9%	2%	-4%	-19%	u	-33%[inhibitor]
CCOC(=O)N1CCC(NC(=O)c2cc(C(=O)Nc3ccc(OCC)cc3)ccc2CO)CC1	-7%	2%	0%	-11%	12%	-1%	-33%[inhibitor]
O=C(CCc1nnc(COc2ccccc2)o1)NCc1ccc(Cl)s1	-3%	-3%	-8%	2%	2%	x	x
Cc1ccc(C(=O)N/C(=C/c2ccc(-c3ccc(Br)cc3)o2)C(=O)NC2CCS(=O)(=O)C2)cc1 (stereo not given)	11%	8%	0%	-2%	2%	-5%	-13%
CN(C)S(=O)(=O)c1ccc(N2CCCC2)c(C(=O)Nc2ccc(N3CCOCC3)cc2)c1	-14%	-3%	0%	-10%	-2%	6%	-31%
COc1ccccc1C(=O)NNC(=O)C(=O)NC(C)(C)C	1%	4%	-3%	-4%	-9%	x	-1%
Cc1csc2nc(CSc3ccc(Cl)cc3)cn12	0%	-16%	-3%	-9%	7%	-13%	5µM*
Cc1ccc(-c2c(C)n([O-])c3c([n+]2=O)CCCCC3)cc1	-7%	2%	-1%	4%	-1%	2%	-12%
CCOC(=O)c1nn(-c2ccccc2)c(C#N)c1NC(=O)c1nn(CC)cc1Br	-1%	4%	-4%	u	4%	u	-1%
CCCCNCCCOc1ccc(C)cc1Br	-13%	5%	-3%	u	-7%	-7%[46 µM]	x
CCC(CC)C(=O)Nc1cc(C)cc(C)c1	1%	-5%	4%	-2%	-1%	-4%	-3%
O/N=C(/CN(O)/C=C1/C=CC=N1)c1cccs1	11%	-2%	-3%	-4%	3%	12%	13%
O=C1COc2ccc(-c3n[nH]c(=O)c4ccccc34)cc2N1	-6%	0%	-3%	-1%	8%	x	-4%
COc1ccccc1Nc1nc(N)nc(CSC(=S)N2CCC(C)CC2)n1	-1%	16%	7%	7%	-9%	-1%	7%
Cc1nc2ccccc2n1CCOc1ccc([N+](=O)[O-])cc1	-6%	-5%	-2%	-5%	11%	13%[46 µM]	x
O=S(CC1CC1(Cl)Cl)CC1CC1(Cl)Cl (stereo not given)	-1%	-4%	6%	-5%	-3%	-2%	u
CCOc1ccc(NC(=O)CCC(=O)NNC(=O)c2ccco2)cc1	-5%	-10%	-1%	-3%	1%	-12%[46 µM]	-4%
Cc1ccc(-c2cc(=O)c3ccc(Cl)cc3[nH]2)cc1	i	-3%&2%	-2%&-2%	-3%	-2%[88.7 µM]	x	x

# Further structures follow.
canonical_smiles	RECQ1 inh	TRb-SRC2 inh	TR SRC2 fluor cs	JMJD2E inh	GoLoco inh red	LMNA splice mod	SMN2 splice up
Cn1c(=O)c2c(SCC(=O)N3CCCc4ccccc43)nc(C3CC3)nc2n(C)c1=O	-15%	-10%	-5%	1%	4%	-9%	-26%
CN1C(=O)/C(=C2\SC(N3CCCCCC3)=NC2=O)c2ccccc21	i	-2%	-4%	1%	8%	-3%	9%
O=C(CS(=O)c1ccc(C(F)(F)F)cc1[N+](=O)[O-])Oc1ccccc1 (stereo not given)	91%[activator]	13%	-1%	-2%	-16%	u	2%
Cc1ccc(C)c(S(=O)(=O)C(C#N)c2nc3ccccc3nc2N2CC(C)OC(C)C2)c1 (stereo not given)	7%	-17%	-1%	u	6%	-8%	-92%[inhibitor]
C(=N\n1cnnc1)/c1cccnc1	-10%	2%	-1%	-1%	3%	3%	3%
CCCCC(C)n1[nH]c(=O)cc1N (stereo not given)	-15%	-1%	0%	7%	6%	13%	-4%
O=C(NC1CCCc2ccccc21)c1cccc(Br)c1 (stereo not given)	-7%	-3%	-2%	-2%	7%	-3%	-17%
C#CCSc1nnc(-c2ccccc2)c(=O)[nH]1	-2%	3%	-1%	-27%	2%	-5%	x
O=Cc1ccc(-c2ccc(Cl)cc2Cl)[nH]1	28%	-7%	-4%	2%	22%	x	x
CN(C)CCn1c(=S)[nH]c2ccccc2c1=O	11%	-17%	1%	-2%	-6%	-3%	11%
COCCNC(=O)C(c1ccco1)N(C(=O)Cn1nnc2ccccc21)c1ccccc1C (stereo not given)	-27%	-8%	0%	-1%	-6%	-2%	-17%
COc1cc(C(=O)Nc2ccc(C)cn2)c([N+](=O)[O-])cc1OC	i	1%	-6%	-1%	-9%	x	3%
COc1ccc(CNC(=O)CSc2ncnc3ccccc23)cc1OC	-1%	1%	0%	-13%	-9%	u	-9%
O=C(CN1N=C(C(F)(F)F)CC1(O)c1ccc([N+](=O)[O-])cc1)c1ccccc1 (stereo not given)	-9%	-1%	1%	12%	-4%	-2%	-8%
O=C(Nc1c(F)c(F)c(F)c(F)c1F)NC1CCCCC1	i	-3%	-1%	3%	1%	0%	-34%[inhibitor]
CS(=O)(=O)N1CCN(c2ccccc2NC(=O)c2cccc3ccccc23)CC1	8%	8%	-4%	3%	-9%	u	u
Cc1ccc(N=Nc2c(N)nn3c(N)c(C#N)c(C)nc23)cc1	-5%	6%	3%	0%	11%	x	x

# Just RECQ1 inh, LMNA splice mod and TR SRC2 fluor cs, for some of the entries so far:
Compound	RECQ1 inh	LMNA splice mod	TR SRC2 fluor cs
COc1ccc(CNC(=O)CSc2ncnc3ccccc23)cc1OC	-1%	u	0%
O=C(CN1N=C(C(F)(F)F)CC1(O)c1ccc([N+](=O)[O-])cc1)c1ccccc1 (stereo not given)	-9%	-2%	1%

# These rows are one share of the data; rates above refer to the full screens.
